Screening data as filed in PubChem.
2A StopGo = High Throughput Screening for Foot and Mouth Disease Virus Antivirals; human cells with a luciferase reporter of 2A StopGo recoding; control for the full effect not named in the record; Potency, µM (series often up to 57.9 µM), for the others: top-dose signal change, negative = less light; 410,000 tested, 1.2% active; active = well fitted falling curve with a large enough effect; inconclusive = small, poorly fitted or top-dose-only effect; inactive = no such curve, though single readings can be large or run the other way; tested in HEK293T cells; further: on the % scale 0 is the no-effect control and ±100 the full control effect; nearly all actives have a fitted effect of over 45% in size; luciferase light after 4 h
SARS PLpro yeast = qHTS of Yeast-based Assay for SARS-CoV PLP. Potency, µM (highest dose often 32.9 µM), without a hit: at the highest dose activity, positive = growth rescue. AID 485353, 2010. S. cerevisiae expressing SARS-CoV PLpro, growth rescue; control for the full effect not named in the record. 330,000 tested, 0.19% active; further: 0% is about no effect; nearly all actives have a fitted effect of over 55% in size; growth read by luminescence after 48 h
RE007 growth inh = qHTS Assay for Inhibitors of the HIV-1 protein Vpr | S. pombe RE007 Vpr strain, BacTiter-Glo ATP luminescence, 24 h; control for the full effect not named in the record | AID 651644, 2012 | 360,000 tested, 0.21% active | Potency, µM (titrated, usually from 92.2 µM), for inactives: top-dose activity change, negative = less growth; active = well fitted falling curve with a large enough effect; inconclusive = small, poorly fitted or top-dose-only effect; inactive = no such curve, though single readings can be large or run the other way;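 further: on the % scale 0 is the no-effect control and ±100 the full control effect; nearly all actives have a fitted effect of over 50% in size; the assay follows cell death caused by Vpr and the record does not say whether a fall means rescue or toxicity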
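Fission yeast RE007 carrying one integrated HIV-1 vpr copy, seeded at OD 0.01 in PMG+AL medium with 23 nL pinned compound. Grown 24 h at 30 degrees; viability read by BacTiter-Glo luminescence after 5 min.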
Cruzain noTriton = qHTS Assay for Promiscuous and Specific Inhibitors of Cruzain (without detergent). Cruzipain (Trypanosoma cruzi), P25779. purified cruzain, Z-FR-AMC fluorescence, no detergent. Potency, µM, for inactives: max response, negative = inhibition, usual class: inhibitors. 200,000 tested, 2.3% active; active means well fitted curve in the direction sought with a large enough effect; inconclusive means small, poorly fitted or top-dose-only effect, or another doubt; inactive means no such curve, though single readings can be large; an effect the other way counts as inactive or inconclusive;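 further: plate controls were enzyme without inhibitor for no effect and buffer without enzyme for full effect; nearly all actives have a fitted effect of over 40% in size; top concentration of the series not given in the record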
Target sequence (P25779 123-467 limits assumed): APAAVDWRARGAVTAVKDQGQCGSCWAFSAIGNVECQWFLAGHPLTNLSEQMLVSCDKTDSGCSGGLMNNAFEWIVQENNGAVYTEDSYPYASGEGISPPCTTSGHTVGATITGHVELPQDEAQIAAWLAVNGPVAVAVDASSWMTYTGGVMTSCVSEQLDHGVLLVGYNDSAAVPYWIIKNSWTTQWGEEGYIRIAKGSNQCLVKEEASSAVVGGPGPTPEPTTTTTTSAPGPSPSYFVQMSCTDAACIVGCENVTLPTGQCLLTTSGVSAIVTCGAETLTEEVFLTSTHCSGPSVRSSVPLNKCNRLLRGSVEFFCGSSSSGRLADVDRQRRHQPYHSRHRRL
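Detergent-free condition (0.00005% Triton X-100) in acetate buffer pH 5.5 with DTT. 1.5 nM enzyme and compound were pre-mixed 15 min, then 2 uM Z-FR-AMC substrate added; reaction progress from fluorescence change between first and third reads (60 s).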
Lassa entry inh = qHTS for Inhibitors of binding or entry into cells for Lassa Virus; Lassa virus pseudotype entry inhibition, cell reporter; control for the full effect not named in the record; Potency, µM (doses to about 37.9 µM), inactives show at the top dose activity change, negative = inhibition, usual class: inhibitors; 300,000 tested, 1.2% active; active means well fitted inhibition curve with a large enough effect; inconclusive means small, poorly fitted or top-dose-only effect, or effect the other way; inactive means flat fitted curve, though single readings scatter; tested in HEK293 cells; further: on the % scale 0 is the no-effect control and ±100 the full control effect; nearly all actives have a fitted effect of over 50% in size; luciferase read-out
MARV entry inh = qHTS for inhibitors of binding or entry into cells for Marburg Virus | 300,000 tested, 1.8% active | Marburg virus pseudotyped entry inhibition, cell reporter; control for the full effect not named in the record; about a third of the inactives were read at about 46 µM | Potency, µM (series often up to 37.8 µM), inactives show top-dose activity change, negative = inhibition, most hits filed as inhibitors; active = well fitted inhibition curve with a large enough effect; inconclusive = small, poorly fitted or top-dose-only effect, or effect the other way; inactive = flat fitted curve, though single readings scatter; tested in HEK293 cells; about a fifth of its hits are not listed in these tables; further: on the % scale 0 is the no-effect control and ±100 the full control effect; luciferase read-out
NS1 inh = qHTS Assay for Inhibitors of Influenza NS1 Protein Function. 270,000 tested, 0.4% active. S. cerevisiae slowed by influenza A NS1, growth recovery by OD600. AID 2326, 2010. Potency, µM (series often up to 46.1 µM), for the others: top-dose activity, positive = more growth; further: actives are rising curves; nearly all actives have a fitted effect of over 50% in size
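S. cerevisiae expressing influenza A NS1, grown in glucose, washed, then diluted 1:100 into pH 6.0 -URA galactose medium with 23 nl compound. Growth recovery read as OD600; NS1-free strain serves as control.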
Cruzain inh Det = qHTS Assay for Promiscuous and Specific Inhibitors of Cruzain (with detergent). purified cruzain, Z-FR-AMC fluorescence, 0.01% Triton. Cruzipain (Trypanosoma cruzi), P25779. Potency, µM, for the others: max response, negative = inhibition, actives largely listed as inhibitors. 200,000 tested, 0.43% active; active means well fitted curve in the direction sought with a large enough effect; inconclusive means small, poorly fitted or top-dose-only effect, or another doubt; inactive means no such curve, though single readings can be large; an effect the other way counts as inactive or inconclusive;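 further: plate controls were neutral wells for no effect and buffer without enzyme for full effect; nearly all actives have a fitted effect of over 40% in size; top concentration of the series not given in the record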
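Steps: dispense cruzain (1.5 nM final) in acetate buffer pH 5.5 with DTT and 0.01% Triton X-100; pin-transfer compounds; incubate 15 min RT; add Z-FR-AMC (2 uM final); read fluorescence every 30 s, using the 60 s intensity change.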
The depositor's hits bear a star; u = inconclusive; x = not tested or not shown; [ ] = another dose, or the depositor's remark. Unless noted, the call rests on the fitted dose curve; in most records, active means well fitted rising curve with a large enough effect; inconclusive means small, poorly fitted or top-dose-only effect; inactive means no such curve, though single readings can be large or run the other way. Potency means the concentration at half of the fitted maximal effect. Not a hit list; 4.7% or so of the library scored in one or more.

SMILES | 2A StopGo | SARS PLpro yeast | RE007 growth inh | Cruzain noTriton | Lassa entry inh | MARV entry inh | NS1 inh | Cruzain inh Det
O=C(O)c1cccc2c1NC(c1cccc([N+](=O)[O-])c1)C1CC(Sc3ccccc3[N+](=O)[O-])C(Cl)C21 (stereo unspecified) | u | -1% | -15% | x | -13%[46.1 µM] | u | u | x
CN(C)c1ncc(S(=O)(=O)c2ccc(Cl)cc2)c(-c2ccc(Cl)cc2Cl)n1 | u | 8% | 34% | -7% | u | -17% | 3% | -1.8%
C/C(=N/NC(=O)c1ccco1)c1ccc(Br)s1 | 40%[activator] | -8% | -5% | x | x | x | -16% | x
Cc1ccc(NC(=O)C(Nc2ccccc2)c2ccccc2)cc1 (stereo unspecified) | -7% | -57% | 4% | 16% | 2% | -23% | -37% | -6.9%
c1ccc2[nH]c(CN3CCCCC3)nc2c1 | -1% | 2% | -10% | 1% | -4% | -3% | 2% | 7.7%
COc1ccc(/C(C)=N/Nc2ccccc2Cl)c(O)c1 | 34%[activator] | 0% | 39% | x | u | u | -1% | x
O=C(NCc1ccco1)C1CCCN1C(=O)Nc1ccc(Cl)cc1 (stereo unspecified) | 13% | 1% | 3% | x | -9% | -3% | x | x
CCc1ccc(N(CC(=O)Nc2sc3c(c2C(=O)OC)CCCC3)S(C)(=O)=O)cc1 | 5% | -36% | 1% | 7% | -27% | -1% | 3% | -5.7%
CCn1c(=O)n(CC)c2cc([N+](=O)[O-])ccc21 | -18% | 22% | -8%[3.69 µM] | -2% | 4% | 0% | -1% | -11%
Cc1c(C(=O)NCCCN2CCCC2=O)oc2ccccc12 | 36%[activator] | -2% | 13% | -2% | -8% | 14% | -10% | 2.6%
CC(=O)Nc1ccc(NC(=O)c2ccc3c(c2)N(Cc2cccc(Cl)c2)C(=O)c2ccccc2S3=O)cc1 (stereo unspecified) | -22% | x | x | -10% | u | x | x | -2.3%
COc1ccccc1NC(=O)N1CCN(C)CC1 | 2% | 14% | -11% | x | -5%[46.1 µM] | -3%[46.1 µM] | 3% | x
O=C(Nc1cc(S(=O)(=O)N2CCCC2)ccc1OCC(F)(F)F)c1ccc(F)cc1 | -1% | -17% | -6% | -13% | 11% | u | 3% | 4.3%
CCc1ccc(-n2c(=O)c3c4c(sc3n(CC(=O)NCCCOC)c2=O)CCCC4)cc1 | -24% | x | x | -9% | -9%[46.1 µM] | -9%[46.1 µM] | x | -5.7%
CCCc1nnc(SCC(=O)Nc2cccc(Cl)c2Cl)o1 | 0% | -1% | 15% | x | x | 13%[46.1 µM] | -54% | x
C=CCOc1ccccc1/C=N/NC(=O)Cc1ccc(C)cc1 | 2% | -2% | -5% | x | x | x | -32% | x
COc1cc(C(CCN2CCOCC2)c2c(OC)cc(OC)c3c(-c4ccccc4)cc(=O)oc23)cc(OC)c1OC (stereo unspecified) | 50%[activator] | 3% | 8% | 5% | x | x | x | 0.9%
O=C(CN(C(=O)CCC(=O)Nc1nccs1)C1CCCC1)NCc1ccc2c(c1)OCO2 | -1% | 2% | -2% | x | 1% | -4%[46.1 µM] | x | x
COC(=O)CC1(CC(=O)OC)C(=O)N(c2ccccc2)C(=O)N(c2ccccc2)C1=O | -8% | 0% | 7% | x | 23% | 19% | 2% | x
CCn1c(SCC(=O)Nc2ccc(F)cc2)nnc1C1CC1 | 11% | 5% | 9% | x | 15%[46.1 µM] | u | 11% | x
O=C(CN(C1CCCCC1)S(=O)(=O)c1ccc(Br)cc1)NCc1ccncc1 | 19% | -1% | 3% | x | x | x | -7% | x
O=C(CSc1nc2ccccc2s1)N1N=C(c2cccs2)CC1c1ccc(F)cc1 (stereo unspecified) | 0% | 3% | 3% | u | -11% | u | 10% | -9.9%
Cc1cc(NCCCN2CCOCC2)n2ncc(-c3ccc(Cl)cc3)c2n1 | 28% | 6% | -5% | 7% | u | -20% | -126% | 0.0%
CSc1nc(-c2ccco2)nn1C(=O)c1ccco1 | -8% | -7% | -4% | 13% | 3% | 3% | -30% | -2.8%
CCOC(=O)N1CCC(NC(=O)COc2cc(=O)n(C)c3ccccc23)CC1 | 0% | -5% | -17% | 0% | x | x | 9% | 0.6%
The list goes on.
SMILES | 2A StopGo | SARS PLpro yeast | RE007 growth inh | Cruzain noTriton | Lassa entry inh | MARV entry inh | NS1 inh | Cruzain inh Det
O=C(CSc1n[nH]c(=O)n1C1CC1)Nc1ccc(OC(F)(F)F)cc1 | -6% | 8% | -6% | x | 0% | -3% | x | x
CC(=O)c1ccc(Cc2ncc(C(F)(F)F)cc2Cl)s1 | -18% | -2% | -18% | -2% | 2% | -2%[46.1 µM] | 6% | -2.0%
COc1cccc(OCc2cc(C(=O)N3CCN(C4CCCC4)CC3)no2)c1 | -15% | -11% | 5% | x | -10% | 12% | -4% | x
COc1cccc(C(=O)Oc2cccc(N3C(=O)C4C5CC(C(Br)C5Br)C4C3=O)c2)c1 (stereo unspecified) | -9% | x | -10%[3.69 µM] | u | -2% | -17% | -11% | -7.6%
CCOC(=O)c1c(NC(=O)COc2ccccc2)sc(C(C)=O)c1C | -13% | x | x | -2% | 24%[46.1 µM] | x | x | -2.5%
Cc1nc2ncnn2c(C)c1CCC(=O)NCc1ccccc1Cl | 10% | x | x | 6% | -5%[46.1 µM] | 7%[46.1 µM] | x | 1.6%
COc1ccc(/C=C/C(=O)NC(=S)NNC(=O)c2cccs2)cc1OC | 10% | -1% | -8% | x | u | u | -2% | x
COC(=O)CNC(=O)c1cn(CC(C)C)c(=O)c2cc(OC)c(OC)cc12 | -7% | -2% | 3% | 3% | 3% | 10% | 7% | 1.8%
CS(=O)(=O)N1CCCC(C(=O)Nc2ccccc2C(F)(F)F)C1 (stereo unspecified) | -1% | 2% | 5% | x | 4% | 22% | 1% | x
CCOC(=O)c1cc2c(=O)n3ccccc3nc2n(CCCOC)c1=NC(=O)c1cc2ccccc2o1 | 1% | x | x | u | -3%[46.1 µM] | 7%[46.1 µM] | x | 13%
COc1cc(-c2ccc(NC(=O)CN3CCC(C)CC3)c(OC)c2)ccc1NC(=O)CN1CCC(C)CC1 | u | 4% | 3% | -1% | 16% | u | 6% | 7.9%
CSc1nc(C)cc(OCC(=O)N2CCOCC2)n1 | -24% | 4% | -6% | -5% | 6% | -4% | 3% | 0.8%
COc1ccc(CCNC(=O)c2ccc3c(c2)N(Cc2ccc(F)cc2)C(=O)c2ccccc2S3(=O)=O)cc1OC | -1% | x | x | u | -27%[46.1 µM] | 10µM* | x | -4.0%
COc1cccc(C(=O)NC(=S)Nc2ccc3[nH]c(=O)[nH]c3c2)c1 | 2% | -6% | 6% | x | 11% | 8%[46.1 µM] | -14% | x
CC(=O)c1ccccc1OCC(O)CN1CCN(CCN2C(=O)c3cccc4cccc(c34)C2=O)CC1 (stereo unspecified) | 28µM* | 0% | 0% | x | u | u | -3% | x
O=C(CCN1CCCCCC1)Nc1ccc(F)c(F)c1 | -13% | 5% | -4% | -9% | 1% | u | -2% | 3.7%
O=C(CCCCCNC(=O)c1ccccc1)N/N=C/c1ccc(O)cc1O | 9% | u | -8% | -2% | 20% | u | 6% | -5.8%
Cc1cc(C)c(C(=O)N2CCCC(CNS(=O)(=O)N(C)C)C2)o1 (stereo unspecified) | 10% | -4% | 1% | x | 12%[46.1 µM] | 17%[46.1 µM] | u | x
CC1CCN(c2nnc(N3CCC(C)CC3)c3ccccc23)CC1 | -28% | 0% | -13% | x | x | x | -36% | x
O=C1N(Cc2ccccc2)c2ccc(Cl)cc2C12OCCO2 | -28% | -13% | -18% | x | 29%[46.1 µM] | -2%[46.1 µM] | -14% | x
CC1=NNC(=O)C1CC(=O)N/N=C/c1ccc(C)o1 (stereo unspecified) | -14% | 1% | 1% | x | 7% | u | 3% | x

Record cards, from the list above:
Record of CCOC(=O)c1c(NC(=O)COc2ccccc2)sc(C(C)=O)c1C : 2A StopGo: -13%; SARS PLpro yeast: x; RE007 growth inh: x; Cruzain noTriton: -2%; Lassa entry inh: 24%[46.1 µM]; MARV entry inh: x; NS1 inh: x; Cruzain inh Det: -2.5%
Record of COc1ccc(CCNC(=O)c2ccc3c(c2)N(Cc2ccc(F)cc2)C(=O)c2ccccc2S3(=O)=O)cc1OC : 2A StopGo: -1%; SARS PLpro yeast: x; RE007 growth inh: x; Cruzain noTriton: u; Lassa entry inh: -27%[46.1 µM]; MARV entry inh: 10µM*; NS1 inh: x; Cruzain inh Det: -4.0%

Some of these compounds in order of formula weight, ascending.
SMILES | 2A StopGo | SARS PLpro yeast | RE007 growth inh | Cruzain noTriton | Lassa entry inh | MARV entry inh | NS1 inh | Cruzain inh Det
O=C(CCN1CCCCCC1)Nc1ccc(F)c(F)c1 | -13% | 5% | -4% | -9% | 1% | u | -2% | 3.7%
Cc1c(C(=O)NCCCN2CCCC2=O)oc2ccccc12 | 36%[activator] | -2% | 13% | -2% | -8% | 14% | -10% | 2.6%
COC(=O)CC1(CC(=O)OC)C(=O)N(c2ccccc2)C(=O)N(c2ccccc2)C1=O | -8% | 0% | 7% | x | 23% | 19% | 2% | x
O=C(O)c1cccc2c1NC(c1cccc([N+](=O)[O-])c1)C1CC(Sc3ccccc3[N+](=O)[O-])C(Cl)C21 (stereo unspecified) | u | -1% | -15% | x | -13%[46.1 µM] | u | u | x
COc1cccc(C(=O)Oc2cccc(N3C(=O)C4C5CC(C(Br)C5Br)C4C3=O)c2)c1 (stereo unspecified) | -9% | x | -10%[3.69 µM] | u | -2% | -17% | -11% | -7.6%
